# Source: PubChem BioAssay (National Center for Advancing Translational Sciences (NCATS))
# D2 PAM = Beta-Arrestin HTS for Positive Allosteric Modulators of the Human D2 Dopamine Receptor: Potentiators | 360,000 tested, 0.23% active | potentiation, % (test concentration not listed) | DiscoveRx D2 beta-arrestin cells, luminescence, 90 min; 100% = 57 uM dopamine signal; active = potentiation of 50% or more; inconclusive = 30% to 50%; inactive = 30% or less;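 also: compound concentration not given in the record; tested on top of an EC20 dose of dopamine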
# Target sequence (P14416 whole entry, looked up): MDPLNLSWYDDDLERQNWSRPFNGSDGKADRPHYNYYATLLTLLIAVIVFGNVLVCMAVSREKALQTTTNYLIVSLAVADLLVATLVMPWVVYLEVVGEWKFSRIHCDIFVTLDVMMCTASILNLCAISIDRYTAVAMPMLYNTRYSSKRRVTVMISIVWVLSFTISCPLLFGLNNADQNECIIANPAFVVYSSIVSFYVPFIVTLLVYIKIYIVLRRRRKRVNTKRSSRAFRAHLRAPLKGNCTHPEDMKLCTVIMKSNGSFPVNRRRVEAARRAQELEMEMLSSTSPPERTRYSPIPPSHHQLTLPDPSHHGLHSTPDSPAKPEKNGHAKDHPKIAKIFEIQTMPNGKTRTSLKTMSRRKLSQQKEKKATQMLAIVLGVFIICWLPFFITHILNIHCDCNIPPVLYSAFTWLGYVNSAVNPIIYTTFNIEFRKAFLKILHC
#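 PathHunter beta-arrestin assay in DiscoveRx D2 cells. Compounds were added with an EC20 of dopamine (50 nM final) for 90 min at 37 deg C. Luminescence was read 1 h after detection reagent, with 57 uM dopamine as the EC100 control.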
# CtBP-E1A inh = qHTS Assay for Inhibitors of the CtBP/E1A Interaction | activity change, % (test concentration not listed) | AlphaScreen GST-E1A/His-CtBP binding, 1536-well; active compounds read low; control for the full effect not named in the record | CtBP / adenovirus E1A interaction (AlphaScreen) | 340,000 tested, 0.49% active; in the data active means activity change below about -65%; inconclusive means about -30% to -65%; inactive means above about -30%; also: % is scaled to controls: 0 for no effect and ±100 for the full control effect
#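 Steps: dispense buffer (Tris pH 8.0, NaCl 300 mM, TCEP 1 mM, BSA, Tween 20); add 5X protein mix (GST-E1A, His-CtBP, 125 nM each); pin 23 nL compound; 2 h at 37 °C, dark; add 5X beads (50 ug/mL); 1 h; read.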
# Six1-Eya2 blk = qHTS Assay for Inhibitors of the Six1/Eya2 Interaction | Homeobox protein SIX1 (Homo sapiens) + Protein phosphatase EYA2 (Homo sapiens), … | AlphaScreen GST-Six1/His-Eya2 binding, biochemical; active compounds read low; control for the full effect not named in the record | activity change, % (concentration not given with the values) | 360,000 tested, 0.56% active; in the data active = activity change below about -65%; inconclusive = about -30% to -65%; inactive = above about -30%; also: % is scaled to controls: 0 for no effect and ±100 for the full control effect
#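 AlphaScreen with GST-Six1 and His-Eya2 (5X mix: 250 nM and 500 nM), glutathione donor and nickel acceptor beads; buffer 50 mM Tris pH 8.0, 300 mM NaCl, 1 mM TCEP; 1 h at 37 C in the dark.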
# TRPV1 PAM = HTS Assay for Compounds that Act as Potentiators of the Vanilloid Receptor 1 | Transient receptor potential cation channel subfamily V member 1 (Homo sapiens), Q8NER1 | TRPV1-expressing cells, Fluo-8 calcium influx, capsaicin EC20 potentiation; host cell line not named in the record; control for the full effect not named in the record | potentiation, % at 8.33 µM | 320,000 tested, 0.02% active | AID 540277, 2011; active means potentiation above 80%; inconclusive means 30% to 80%; inactive means below 30%; also: 0% is about no effect
#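 Cells expressing TRPV1 were dye-loaded with Fluo-8 and read kinetically: 10 s baseline, 3 min after compound (agonist portion), then 2 min after EC20 capsaicin (allosteric enhancer portion). Calcium-bound dye fluorescence at 480/520 nm.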
# Sfp inh = qHTS Assay for Inhibitors of Bacillus subtilis Sfp phosphopantetheinyl transferase (PPTase); AID 1490, 2009; 4'-phosphopantetheinyl transferase ffp (Bacillus subtilis), Q9F4F7; Potency, µM, for inactives: max response, negative = inhibition, usual class: inhibitors; 310,000 tested, 3.5% active; Biochemical Sfp PPTase activity, qHTS; active = well fitted inhibition curve with a large enough effect; inconclusive = small, poorly fitted or top-dose-only effect, or another doubt; inactive = no such curve, though single readings can be large or run the other way;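 also: the enzyme is Sfp with the accession as filed and its product quenches rhodamine fluorescence; potency is read from the fitted curve at half-maximal effect; 0% = enzyme reaction without inhibitor and -100% = no enzyme wells; top concentration of the series not given in the record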
#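 Sfp 15 nM + cpd, 15 min RT; start w/ rhodamine-CoA 5 uM, BHQ-2-YbbR 12.5 uM (final); 50 mM Hepes pH 7.6, 10 mM MgCl2, 0.01% NP-40, 0.01% BSA; read 525/598 nm at 0 and 30 min.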
# D2 ag = Beta-Arrestin HTS for Positive Allosteric Modulators of the Human D2 Dopamine Receptor: Agonists; 360,000 tested, 0.084% active; activation, % (concentration not given with the values); AID 624465, 2012; D(2) dopamine receptor (Homo sapiens), P14416; DiscoveRx PathHunter D2 beta-arrestin, luminescence, 90 min; 100% = 57 uM dopamine signal; in the data active = activation above about 40%; inconclusive = about 15% to 40%; inactive = below about 15%; also: compound concentration not given in the record; the text of the record calls up to 30% inactive
#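 Agonist mode: compounds alone added to overnight-plated D2 PathHunter cells for 90 min at 37 C, with 57 uM final dopamine (EC100) defining full response. Beta-arrestin recruitment detected by chemiluminescent reagent, read after 1 h at ambient temperature.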
# PINK1 expr mod = A Quantitative High throughput Screen to Identify Chemical Modulators of PINK1 Expression; PINK1 immunofluorescence, high-content cytometry, 24 h; Potency, µM (series often up to 76.6 µM), without a hit: at the highest dose activation (PINK1 increase), actives largely listed as activators; 410,000 tested, 0.2% active; AID 624263, 2012; active = well fitted activation curve with a large enough effect; inconclusive = small, poorly fitted or top-dose-only effect; inactive = flat fitted curve, though single readings scatter; cell line not stated here;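 also: potency is read from the fitted curve at half-maximal effect; % of control where 0% means no effect; nearly all actives have a fitted effect of over 65% in size; a mitochondrial uncoupler was the plate control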
#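 PINK1 protein level read as immunofluorescence by microplate cytometer in a fixed, stained stable cell line after 24 h exposure to five compound concentrations, with CCCP as control.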
# * hit, by the source's call; ? = inconclusive; · = no result given; & = joins results of further samples; [ ] = dose if it differs, or a comment.
structure,D2 PAM,CtBP-E1A inh,Six1-Eya2 blk,TRPV1 PAM,Sfp inh,D2 ag,PINK1 expr mod
Cc1ccc2c(c1)C1CN(C)CCC1N2C(=O)COc1ccccc1F (stereo unspecified),7,5,?,3,6%,-0.6,2.6%
CN(C)S(=O)(=O)N(Cc1ccc(Br)cc1)c1ccccc1,-4,19,16,4,-4%,-2.4,0.1%[38.3 µM]
COc1cc(/C=C/c2cccc[n+]2C)ccc1OCC(=O)Nc1cccc(Cl)c1,-11,-1,3,-4,-17%,-4.3,5.7%
Cc1csc(CN(C)C(=O)CC2C(=O)NCCN2CC(C)(C)C)n1 (stereo unspecified),3,8,-11,10,?,3.9,0.6%
N=c1ccn(O)cc1CCc1ccccc1,-5,6,0,·,·,1.3,-1.1%
O=C(NCCc1ccccc1)c1c[nH]c2c(F)cccc2c1=O,-5,-21,18,6,11%,-3.6,-0.1%
Cn1c(=S)oc2ccccc21,-7,7,6,-9,11%,-1.3,1.9%
O=C(OCC(=O)N1CCCC1=O)c1nc(Cl)c(Cl)c(Cl)c1Cl,22,6,-9,-7,-7%,-0.6,-1.4%
C[C@H](CO)N1C[C@H](C)[C@@H](CN(C)C(=O)CCCN(C)C)OCc2cn(nn2)CCCC1=O,4,5,8,·,·,-8.5,0.6%
CCC(C)(C)NC(=O)C(c1cccs1)N(C(=O)c1ccn[nH]1)c1cccc(OC)c1 (stereo unspecified),1,2,11,14,8%,-3.6,-1.3%
COc1ccc(C)c2sc(N(CCCN(C)C)C(=O)CS(=O)(=O)c3ccc(F)cc3)nc12,-8,-6,-6,3,·,-0.6,13%
Cc1ccc(NCC(=O)Nc2cccc(S(=O)(=O)N(C)C)c2)cc1S(=O)(=O)N1CCCCCC1,-6,-4,-11,6,·,-0.3,0.2%
COc1ccc(-n2c(=O)c(CCC(=O)N3CCC(C)CC3)nc3ccccc32)cc1,0,·,-9,-5,·,1.6,2.2%
Cn1cc(SCC(=O)N2CCOCC2)c2ccccc21,-4,-1,-8,-3,-5%,4.8,0.1%
COc1cc(C(=O)NNC(=S)NC(=O)c2ccc(Cl)cc2)cc(OC)c1OC,-15,-7,-10,7,5%,-12,-2.6%
CN(C(=O)c1cccc(NC(=O)Cc2cccc(NC(=O)C3CCN(C(=O)C4CCCC4)CC3)c2)c1)C1CC1,·,0,-3,·,·,-0.2,0.7%
Cc1cccc2cncc(OCc3nnc(SC(F)F)n3C)c12,2,-8,11,1,10%,1.9,4.1%
Cc1nn(CCC(=O)Nc2cccc(C#N)c2)c(C)c1S(=O)(=O)N1CCCCC1,-30,2,3,6,8%,-2.9,-0.5%&-0.7%
C/C(Cc1ccccc1)=N\NC(=O)CNC(=O)c1ccccc1F,-12,-18,10,10,-2%,5.3,-0.6%
Cc1cccc(COCC(CC(C)C)N2CCN(C(=O)c3ccc(C(F)(F)F)cc3)CCC2=O)c1 (stereo unspecified),-5,3,1,-3,5%,5.1,8.9%
CCOC(=O)c1[nH]c(C)c(C(=O)NCc2cccnc2)c1C,-1,5,-3,?,-1%,-1.0,-1.3%
Cc1cc(Oc2ccc(=O)n(C)n2)nc(Oc2ccc(=O)[nH]n2)n1,1,-1,?,-9,14%,-4.3,-0.7%
CC(C)CN(C(=O)COC(=O)c1ccccc1SCC(=O)N1CCCC1)C1CCS(=O)(=O)C1 (stereo unspecified),-17,-13,8,·,·,-2.8,-0.6%
COc1cccc(C(=O)CN2C3=NCCCN3c3ccccc32)c1,-31,-1,-1,9,12%,-0.5,0.0%
COc1ccc(-c2csc(CCN3N=C(C)CC3=O)n2)cc1,-26,10,6,4,3%,-7.0,2.2%
N#C/C(=C\c1cn(-c2ccccc2)nc1-c1cc2ccccc2o1)c1nc2ccccc2[nH]1,16,-3,0,-5,8%,4.0,?
CCOC(=O)CN(C(=O)Cn1nnc(-c2ccc(OC)cc2)n1)C(C(=O)NC1CCCC1)c1ccc(F)cc1 (stereo unspecified),-17,3,-5,-1,7%,-2.1,-5.9%[38.3 µM]
Cn1nnnc1SCc1ccccc1[N+](=O)[O-],-14,6,1,-18,19%,-2.7,-1.8%
COc1ccc(CC(=O)OCn2nnc3ccccc3c2=O)cc1,-1,6,0,-3,2%,-4.8,0.1%
Cc1nnc(SCC(=O)N2CCOCC2)[nH]c1=O,-8,7,-3,-5,?,-13,0.1%
COc1cc(NC(=O)c2cccs2)c(OC)cc1NC(=O)CCC(=O)Nc1ccc(C)cc1,0,?,?,5,-24%,0.2,5.9%
Cc1cccc(C)c1NC(=O)CN(C)C(=O)Cn1c(=O)cnc2ccccc21,-1,4,8,-7,-5%,1.3,0.0%
O=S1(=O)C[C@@H](N2CCOCC2)[C@H](N2CCOCC2)C1,-12,1,6,9,71µM*,1.5,-0.4%
C/C(=N\NC(=O)c1cccc(O)c1)c1cccc(NC(=O)c2ccc(F)cc2)c1,-5,-14,-4,-10,13%,2.9,1.1%
Cc1occc(=O)c1OCc1c(Cl)cccc1Cl,-9,-15,-7,6,?,1.8,-3.1%
O=C(CN(C(=O)CNS(=O)(=O)c1ccccc1)c1ccc(Cl)cc1)NCC1CCCO1 (stereo unspecified),1,-14,3,0,9%,0.8,-0.7%
O=C(O)c1cc2c(ncc3c(=O)n(-c4ccccc4)[nH]c32)s1,0,-68*,-75*,·,·,-2.8,1.2%
O=C(O)c1cc(-c2ccc(Br)s2)nc2ccccc12,1,2,7,13,6%,0.0,0.3%
Cc1ccc(S(=O)(=O)Nc2c(C)n(C)n(-c3ccccc3)c2=O)cc1,-3&-1,7&4,-12&7,1&-12,26%&11%,0.1&3.3,0.0%
Cc1cc(C(=O)N2CCC2(C)C(=O)Nc2cccc3ccccc23)nn1C (stereo unspecified),4,8,1,·,·,3.2,3.8%
CCOC(=O)c1cccc(Nc2nc(-c3cccnc3)nc3ccccc23)c1,-7,-17,-17,8,-17%,-0.4,-3.5%
CCC(OC(=O)c1ccco1)C(=O)NCc1ccc(C)cc1 (stereo unspecified),2,-1,-1,-22,2%,-2.4,-1.6%[38.3 µM]
CCOc1ncccc1C(=O)OCC(=O)Nc1ccc2c(c1)OCCO2,3,-2,9,-3,·,2.2,1.1%
CC1=NCCN1S(=O)(=O)c1c(C(C)C)cc(C(C)C)cc1C(C)C,-3,-2,0,-1,9%,0.7,0.2%
CCC(Oc1ccccc1)C(=O)Nc1nnc(C(F)(F)F)s1 (stereo unspecified),3,8,7,?,6%,-1.7,3.8%
CCOC(=O)c1c(NC(=O)CSc2nnc(C)c(=O)[nH]2)sc2c1CCC2,-3,-17,7,-7,12%,-3.0,0.8%
COc1ccc(-c2cn3ccccc3n2)cc1,-4,2,6,-9,12%,-2.1,0.1%
CCCNC(=O)N1CCN(c2ncccn2)CC1,-8,4,-2,12,-2%,-3.2,0.9%
CCOC(=O)c1cnc(SCC(=O)Nc2cc(OC)ccc2OC)nc1N,-33,-3,-10,11,-1%,4.7,0.4%
C=C1C(=O)[C@]23C[C@H]1CCC2[C@]1(C)C(=O)CC[C@@](C)(C(=O)O)C1C[C@@H]3O (stereo partly specified),-9,6,-1,·,·,-6.4,0.0%

# Next compounds.
structure,D2 PAM,CtBP-E1A inh,Six1-Eya2 blk,TRPV1 PAM,Sfp inh,D2 ag,PINK1 expr mod
Cc1ccc(F)cc1NC(=O)c1ccc(OCC2CCCO2)cc1 (stereo unspecified),-2,0,2,·,·,6.9,-0.8%
O=C(CN1CCC(O)(c2ccc3c(c2)OCO3)CC1)OC1CCCCC1,-12,2,-1,-13,9%,-3.5,?
COc1cc2cc(CCCOC(=O)c3ccco3)oc(=O)c2cc1OC,-5,-10,-18,-9,·,-2.5,2.9%
Cc1cc(OCC(=O)OCC(=O)Nc2cc(C(F)(F)F)ccc2N2CCOCC2)ccc1Cl,0,·,26,-3,12%,-4.5,-1.5%
CC1CN(c2nc3ccccn3c(=O)c2/C=C(\C#N)C(=O)N2CCOCC2)CC(C)O1 (stereo unspecified),-4,4,1,-6,-2%,4.0,0.9%
CCCCn1c(N)c(N(CCOC)C(=O)c2cc(-c3ccccc3)nc3ccccc23)c(=O)[nH]c1=O,4,1,11,-9,·,-1.9,1.1%
COc1ccc(F)cc1C(=O)COC(=O)c1n[nH]c(=O)c2ccccc12,-3,2,3,-8,·,-5.0,-0.4%
COc1ccc(C(=O)Nc2cccc(/C=C(\CCC(=O)O)c3nc4ccccc4s3)c2)cc1,14,-7,-7,14,-4%,-4.7,0.6%
O=C(c1ccc(N2CCCC2)c([N+](=O)[O-])c1)N1CCN(CCO)CC1,-3,1,-1,11,5%,1.8,0.8%
COc1ccc(C(C)(C)C)cc1NC(=O)c1cncc(Br)c1,-12,1,3,-9,6%,-3.4,0.2%
CCCNC(=O)c1cccc(COCC(F)(F)F)c1,-3,-2,4,·,·,1.6,-1.0%
Cc1cc(-n2nc(C)cc2C)nc(N)n1,-6,2,-3,7,0%,-3.7,-1.0%
CN[C@H](C)C(=O)NC[C@H]1O[C@@H](n2ccc(N)nc2=O)[C@H](O)[C@@H]1O,·,4,9,·,·,-0.6,0.2%
CCCCc1nc2cc(C(=O)NCCc3cnn(C)c3)ccc2o1,-17,11,7,-8,6%,-2.8,-0.4%
CCN(CC)c1ccc(/C=N/NC(=O)c2cc3ccccc3[nH]2)cc1,-2,·,-19,6,15%,5.1,2.3%
